# Sfp PPTase inh = blocks B. subtilis Sfp PPTase activity. Q9F4F7. Biochemical Sfp PPTase activity, qHTS. Potency, µM, without a hit: max response, negative = inhibition, most hits filed as inhibitors. 3.5% of 310,000 active. AID 1490; active means well fitted inhibition curve with a large enough effect; inconclusive means small, poorly fitted or top-dose-only effect, or another doubt; inactive means no such curve, though single readings can be large or run the other way;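 further: the enzyme is Sfp with the accession as filed and its product quenches rhodamine fluorescence; potency means the concentration at half of the fitted maximal effect; 0% = enzyme reaction without inhibitor and -100% = no enzyme wells; top concentration of the series not given in the record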
#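 Fluorescence-quenching assay: 15 nM Sfp-PPTase preincubated 15 min at room temperature with compound, then 5 uM rhodamine-CoA and 12.5 uM BHQ-2-labelled YbbR peptide added. Fluorescence (ex 525/em 598 nm) read at start and after 30 min; difference gives rate.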
# TRPML1 blocker = human mucolipin-1 channel inhibition. Q9GZU1. TRPML1-inducible cells, Ca2+ dye fluorescence, FDSS; stronger effect = lower value; inhibition of EC80 agonist-evoked calcium signal. activity change, negative = inhibition, % (test concentration not listed). 0.02% of 390,000 active; in the data active means activity change below about -50%; inconclusive means about -30% to -50%; inactive means above about -30%;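 further: stimulus is agonist 54-4 at its EC80 concentration; on the % scale 0 is the no-effect control and ±100 the full control effect; compound concentration not given in the record; the text of the record puts the active cut at -80%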
# Target sequence (Q9GZU1 whole entry, looked up): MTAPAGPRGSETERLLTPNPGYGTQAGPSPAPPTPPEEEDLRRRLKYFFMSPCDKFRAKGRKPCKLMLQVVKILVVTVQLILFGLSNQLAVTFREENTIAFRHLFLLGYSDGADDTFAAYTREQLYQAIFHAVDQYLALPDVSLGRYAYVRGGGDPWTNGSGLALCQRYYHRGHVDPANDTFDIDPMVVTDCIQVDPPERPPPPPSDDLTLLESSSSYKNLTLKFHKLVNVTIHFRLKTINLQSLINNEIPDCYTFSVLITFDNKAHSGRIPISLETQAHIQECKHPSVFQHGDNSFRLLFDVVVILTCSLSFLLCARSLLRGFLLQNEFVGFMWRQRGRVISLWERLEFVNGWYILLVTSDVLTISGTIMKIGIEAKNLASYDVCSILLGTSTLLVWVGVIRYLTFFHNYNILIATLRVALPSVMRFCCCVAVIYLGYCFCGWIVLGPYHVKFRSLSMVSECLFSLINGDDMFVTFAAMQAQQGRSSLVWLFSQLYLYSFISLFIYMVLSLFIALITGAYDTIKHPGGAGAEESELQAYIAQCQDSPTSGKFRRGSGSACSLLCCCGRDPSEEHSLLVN
#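 TRPML1-DL cells, Tet-induced overnight (~16 h, 37 °C) at 1,500 cells/well, were loaded with Ca8 no-wash dye plus quencher for 45-90 min at room temperature. Compounds were pinned during FDSS kinetic reading; agonist 54-4 at EC80 (4 uM final) then added.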
# gsp ag = activates gsp, the McCune-Albright syndrome mutation. gsp mutant cells, cAMP HTRF, 30 min; control for the full effect not named in the record. Potency, µM (top dose mostly 76.9 µM), for the others: top-dose activation (cAMP increase), actives largely listed as activators. 0.13% of 340,000 active. AID 624287; active = well fitted activation curve with a large enough effect; inconclusive = small, poorly fitted or top-dose-only effect, or another doubt; inactive = no such curve, though single readings can be large or run the other way; cell line not stated here;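 further: phosphodiesterase inhibitor Ro 20-1724 added with compounds to block cAMP breakdown; potency means the concentration at half of the fitted maximal effect; nearly all actives have a fitted effect of over 60% in size; about a fifth of the inactives were tested at one dose only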
#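 Cells in DMEM/10% FBS with G418 were pretreated with compounds in DMSO plus […] (300 uM stock) for 30 min at 37C. cAMP was measured by HTRF (cAMP-d2 plus anti-cAMP antibody-K) after 30 min at room temperature.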
# gsp antagonist = gsp mutant antagonism. Potency, µM (top dose mostly 76.9 µM), for inactives: at the highest dose activity change, negative = inhibition, usual class: inhibitors. gsp-mutant cells, cAMP HTRF, 30 min; control for the full effect not named in the record. 0.4% of 340,000 active; active = falling curve of any shape with a large fitted effect; inconclusive = falling curve, mostly with a smaller effect; inactive = flat or rising curve; cell line not stated here;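 further: intracellular cAMP measured with PDE inhibitor Ro 20-1724 present during compound exposure; potency means the concentration at half of the fitted maximal effect; on the % scale 0 is the no-effect control and ±100 the full control effect; nearly all actives have a fitted effect of over 65% in size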
#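 Measurement of cellular cAMP by homogeneous time-resolved fluorescence following a 30 min compound exposure at 37C. The PDE inhibitor […] was present throughout; the assay buffer was DPBS with 0.05% BSA and 0.005% Tween 20.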
# TRPV1 PAM = potentiators of human vanilloid receptor 1 (TRPV1); Q8NER1; TRPV1-expressing cells, Fluo-8 calcium influx, capsaicin EC20 potentiation; host cell line not named in the record; control for the full effect not named in the record; potentiation, % at 8.33 µM; AID 540277; 0.02% of 320,000 active; active means potentiation above 80%; inconclusive means 30% to 80%; inactive means below 30%; further: 0% is about no effect
#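 Fluo-8 calcium influx in TRPV1-expressing cells, kinetic read (ex 480/em 520 nm). Compound added and read 3 min for agonist activity, followed by capsaicin at EC20 final and 2 min further read for enhancement.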
# ClpP mod = qHTS Assay for Activators of ClpP | ATP-dependent Clp protease proteolytic subunit (Bacillus subtilis (strain 168)), P80244 | AID 651965, 2013 | Potency, µM (doses to about 57.5 µM), inactives show top-dose activity change, negative = active | purified B. subtilis ClpP, FRET peptide cleavage, 20 min | 1.9% of 340,000 active; active = well fitted falling curve with a large enough effect; inconclusive = small, poorly fitted or top-dose-only effect; inactive = no such curve, though single readings can be large or run the other way; further: potency means the concentration at half of the fitted maximal effect; the source files actives as falling curves though it sought activators and does not explain the sign; nearly all actives have a fitted effect of over 65% in size; many hits overshoot -100%
# Target sequence (P80244 whole entry, looked up): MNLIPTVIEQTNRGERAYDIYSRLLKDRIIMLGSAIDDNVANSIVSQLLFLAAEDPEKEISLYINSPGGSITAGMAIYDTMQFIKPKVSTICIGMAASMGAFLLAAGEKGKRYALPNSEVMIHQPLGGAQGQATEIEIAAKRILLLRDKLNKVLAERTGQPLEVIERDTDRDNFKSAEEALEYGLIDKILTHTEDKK
#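 Purified B. subtilis ClpP, 10 microg/mL final in Tris/HCl pH8 with KCl, BSA, glycerol and Tween-20, cleaved an Abz/nitrotyrosine-quenched decapeptide. Fluorescence (ex 320, em 430) was read at 0 and 20 min at room temperature. Delta was normalized to 5.8 microM ADEP and DMSO/no-enzyme controls.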
# Menin MLL FP FL = menin-MLL binding inhibition, fluorescein peptide | Fluorescence polarization, fluorescein-MLL peptide displacement from menin | FP activity change, % at 61.4 µM | 290,000 tested, under 10 active | AID 1766; inconclusive = falling polarisation curve, or a change in total fluorescence; inactive = total fluorescence flat and polarisation flat or rising; no compound was filed as active; the % refers to the polarisation; negative = inhibition;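 further: % of control where 0% means no effect; inhibitors lower the polarisation; unlabelled MLL peptide was the positive control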
# Active calls of the source: *; ? = inconclusive; · = not tested or not shown; & = joins results of further samples; [ ] = dose if it differs, or a comment.
SMILES,Sfp PPTase inh,TRPML1 blocker,gsp ag,gsp antagonist,TRPV1 PAM,ClpP mod,Menin MLL FP FL
Oc1[nH]c2ccccc2c1N=Nc1c(F)c(F)c(Cl)c(F)c1F,18%,-9,-14%,1%,-1,-0.6%,?
COc1cccc(NC(=O)c2sc3ncn(CC(=O)N4CCN(c5ccccn5)CC4)c(=O)c3c2C)c1,8%,12,?,-8%,11,-4.8%,·
COc1cc2cc(CN(Cc3cccnc3)C(=O)NCc3ccccc3)c(=O)[nH]c2cc1OC,8%,-5,18%,-1%,-7,25µM*,0.1
COc1ccccc1C(=O)Nc1ccc(C2=NNC(=O)CC2C)cc1 (stereo not drawn),10%,-13,18%,1%,-1,-4.5%,0.6
COc1ccc(NC(=O)c2c(C)oc3c2CCCC3)cc1,16%,8,-16%,0%,-11,-0.7%,0.8
Cc1cccc(CSCCNC(=O)c2ccc(CN3CCOCC3)cc2)c1,-6%,-13,?,-12%,-15,-9.8%,-3.4
Cc1ccccc1C(=O)O/N=C(\c1ccccc1)c1ccccn1,5%,-11,-8%,-4%,-22,-9.7%,1.4
Cc1ccc(C(CNS(=O)(=O)c2ccc(Cl)cc2)N2CCN(C)CC2)cc1 (stereo not drawn),·,-12,29%,12%,-16,0.3%,·
COc1ccc(C(=O)NC(=S)NNC(=O)[C@H]2C[C@@H]2c2ccccc2)cc1OC,-4%,5,-17%[15.4 µM],-4%,0,·,0.0
CC1Cc2ccccc2N1C(=O)CSc1nnc2c(n1)[nH]c1ccccc12 (stereo not drawn),10%,24,-32%[inhibitor],-14%,-6,-2.4%,4.2
COc1ccc(-c2oc(=O)n(C)c2-c2ccc(OC)cc2)cc1,1%,27,-7%,-9%,23,·,-3.1
CCN(CCNC(=O)Cn1c(=O)sc2ccccc21)c1ccccc1,-1%,-24,6%,-9%,·,-1.3%,-1.1
CCN(CC(=O)Nc1ccc(OC)cc1)CC(=O)Nc1ccc(Cl)cc1F,4%,33,5%[15.4 µM],7%,-6,0.4%,3.9
O=C(c1ccc(F)cc1)N1CCN(Cc2ccccc2)CC1,6%,-8,0%[15.4 µM],9%,-14,-0.3%,-6.9
CCOc1ccc(N2C(=O)Nc3ccccc3C2(O)C(=O)NCc2ccc(OC)cc2)cc1 (stereo not drawn),29%,13,11%[15.4 µM],1%,-1,0.7%,2.6
Cc1cccc(N(CC(=O)NC2CCCC2)C(=O)CS(=O)CC(=O)Nc2ccc3c(c2)OCO3)c1C (stereo not drawn),-12%,9,-12%,6%,22,-1.1%,4.4
COc1ccc(CNC(=O)CN(c2cc(C)cc(C)c2)S(=O)(=O)c2c(C)[nH]c(=O)[nH]c2=O)cc1,9%,-12&-11,1%,8%,1,-2.6%&-0.9%,·
CCO[C@H]1OC(C(=O)N2CCN(Cc3ccc4c(c3)OCO4)CC2)=C[C@@H](c2ccc3c(c2)OCO3)[C@@H]1CCCO,-7%,-12,·,-2%,-32,-1.2%,2.8
COCCCNc1nc(N)c([N+](=O)[O-])c(NCc2ccccc2)n1,10%,12,3%,11%,?,1.6%,-6.3
Cc1c(/C=C2\SC(=Nc3cccc(C(=O)O)c3)NC2=O)c2ccccc2n1C,-11%,·,9%,-8%,23,-1.5%,?
CC(=O)C[C@H](O)CC(=O)[C@H]1OC(=O)[C@@H](C)CCCCc2ccccc21,·,-2,·,4%,·,1.3%,·
Cc1nn(CCC(=O)N2CCN(S(=O)(=O)c3ccccc3)CC2)c(C)c1C,14%,15,-3%[15.4 µM],14%,5,·,0.7
CCOc1ccc(Oc2ccc(NS(=O)(=O)c3cc(C(=O)O)ccc3Cl)cc2)cc1,·,9,-23%,-4%,14,2.9%,·
O=C(O)CN1C(=O)/C(=C\c2cc([N+](=O)[O-])ccc2OCc2ccccc2Cl)SC1=S,79µM*,17,11%,-4%,3,·,17
COc1ccccc1NS(=O)(=O)c1cc(N/C(=N\S(=O)(=O)c2ccccc2)c2ccc(F)cc2)ccc1Cl,-2%,5,-2%,-11%,-1,-16%,2.4
Cc1cc2c(C)cc(=O)oc2c2c1NCCC2,-13%,-4,?,3%,-7,10%,1.8
CC(=O)c1ccc(N2CCN(CC(=O)Nc3ccccc3N3CCOCC3)CC2)cc1,14%,2,9%[15.4 µM],-41%,-4,1.5%,0.4
CCN(CC)c1cc(C)c2ccccc2n1,0%,-3,0%,8%,-5,-26%,-0.9
CC(=O)c1ccc(S(=O)(=O)N(C)CC(=O)Nc2cc(C)on2)cc1,·,3,7%[15.4 µM],7%,-2,-2.7%,·
CCCc1nnc(NC(=O)c2oc3ccccc3c2COCC)s1,·,14,-8%[15.4 µM],-4%,2,·,·
Cn1ncc(Br)c1C(=O)Nc1cccc(C(F)(F)F)c1,7%,-1,-19%[15.4 µM],0%,-25,·,5.8
O=C(COC(=O)CSc1cccc2cccc(Cl)c12)Nc1ncc(C(F)(F)F)cc1Cl,?,26,?,2%,4,-11%,?
Cc1ccc(C)c(S(=O)(=O)N(C)c2ccc(OC(=O)C3CCN(C(=O)c4ccc(F)cc4)CC3)cc2)c1,·,26,2%,6%,·,-2.4%,·
CCN(CC)C(=O)C1CCN(S(=O)(=O)c2c(C)noc2/C=C/c2cccc(C)c2)CC1,7%,42,-6%,-40%,2,-6.2%,2.8
CCc1ccc(OCC(=O)Nc2cccc3nsnc23)cc1,-9%,8,?,5%,-6,2.1%,3.6
Clc1ccc(-n2nnnc2Sc2ncnc3sccc23)cc1,·,-3,25%,6%[15.4 µM],·,-4.8%,·
Cc1ccc2nc(N3CCN(c4cccc(C)c4C)CC3)c3nnnn3c2c1,-1%,-9&-11,-33%[inhibitor],-7%,-12,-5.0%&1.2%,?
Cc1ccccc1NS(=O)(=O)c1nnc(NC(=O)C(C)C)s1,14%,-23,-2%,2%,-8,-0.8%,-13
CC1(C)NC(C)(C)C(O)(C(N)=O)C1=O (stereo not drawn),-3%,3,?,7%,·,0.8%,-1.1
COC(=O)C1=C(C)N(c2ccc(C)cc2)/C(=C/c2ccc(O)cc2)C1=O,6%,-7,-55%[inhibitor],-19%,-7,3.3%,14
COc1c2ccoc2c(OC[C@@H](OC(C)=O)C(C)(C)O)c2oc(=O)ccc12,·,-12,·,5%,6,-6.8%,·
O=C(NN=C1CCCC1)c1ccccc1OCCOc1ccccc1,3%,12,12%,-10%,1,-0.5%,0.2
COc1ccc(OC)c(/C=N/NC(=O)c2cc3c(OC)cc(OC)cc3[nH]2)c1,19%,-4,-15%[15.4 µM],?,-8,-19%,-12
O=[N+]([O-])c1ccc(S(=O)(=O)N2CCN=C2SCc2ccc(F)cc2)cc1,15%,5,-12%,4%,-4,-0.2%,·
CCCC[C@H]1CCCO[C@@](C(=O)NCc2ccc(C)o2)(C(F)(F)F)C1,-26%,27,·,·,·,·,3.2
COc1ccc(CCNC(=O)c2ccc(CN3CCOCC3)cc2)cc1,-16%,-5,?,10%,17,-2.0%,6.9
Cc1ccc(NS(=O)(=O)c2ccc(C(=O)N3CCN(c4ccccn4)CC3)cc2)cc1,-8%,6,-84%[inhibitor],?,6,-2.7%,0.9
CCCCn1c(Nc2ccccc2)nc2ccccc21,15%,5,11%,-3%,11,-10%,1.6
O=C(CNc1cccc(Br)c1)Nc1ccc(S(=O)(=O)N2CCCCC2)cc1,·,10,-46%[inhibitor],·,·,0.1%,·
COC(=O)c1[nH]c2cc(OC)c(OC)cc2c1/C=N/Nc1ccccc1,-15%,-19,-6%,-2%,17,6.0%,-0.1
CC1CC(=O)Nc2ccccc2N1C(=O)COc1ccc2ccccc2c1 (stereo not drawn),·,-14,-35%[inhibitor],-1%,·,-6.1%,·
O=C(NCc1ccc2c(c1)OCO2)C(=O)NCC(c1ccco1)N1CCN(c2ccccc2)CC1 (stereo not drawn),-22%,·,?,3%,6,-1.1%,1.1
C=CCSc1nc(N)c(NC(=O)c2ccco2)c(=O)[nH]1,·,0,-44%[inhibitor],-5%,·,-1.7%,·
CCCNC(=O)NC(=O)CSc1nc2ccccc2n1CC(C)C,11%,5,-3%,-10%,1,-2.1%,0.7
Cc1cc(CSc2ccccc2)ccc1NC(=O)COc1ccccc1C,16%,-1,12%[15.4 µM],-4%,27,·,2.1
Cn1c(=O)c2c(-c3ccc(OC(F)F)cc3)cc(-c3ccccc3)nc2n(C)c1=O,14%,2,-17%[15.4 µM],5%,1,·,-1.6
COc1ccc(-c2c(C)nc3c(-c4ccsc4)cnn3c2N)cc1,10%,-8,5%,-2%,9,4.4%,1.1
CCOc1ccccc1CN1C(=O)c2ccccc2C1C(=O)NCC1CCCO1 (stereo not drawn),14%,5,-7%,1%,?,-1.7%,0.3
O=C(O)CCCn1cc(NC(=O)c2sc3ccccc3c2Cl)cn1,10%,?,19%,2%,-2,0.9%,·
COc1cccc(C2C(C(=O)c3cc4ccccc4o3)=C(O)C(=O)N2CCN2CCOCC2)c1 (stereo not drawn),14%,-11,35%[15.4 µM],-5%,?,-2.9%,7.4
# The list continues:
SMILES,Sfp PPTase inh,TRPML1 blocker,gsp ag,gsp antagonist,TRPV1 PAM,ClpP mod,Menin MLL FP FL
O=c1cc(N2CCN(Cc3ccccc3)CC2)[nH]c(=O)n1-c1ccc(Br)cc1,-5%,-1,-13%,-3%,25,-2.2%,-1.9
CC(NC(=O)CN1CCN(S(=O)(=O)c2ccc(Br)cc2)CC1)c1ccccc1 (stereo not drawn),·,-11,0%,-3%,-2,-1.7%,·
COc1cc(/C=C/C(=O)OCC(=O)NC(C)c2ccccc2)cc(OC)c1OC (stereo not drawn),·,11,2%[15.4 µM],-10%,·,0.8%,·
CCC(C)n1c(-c2cccc(S(=O)(=O)N(CC)CC)c2)n[nH]c1=S (stereo not drawn),-7%,2,0%[15.4 µM],·,0,·,0.6

# Bioassay records (PubChem)

# No enrichment for hits, and some 4.9% of all compounds hit somewhere here.
